miR-21 reporter = raises the signal of a miR-21 reporter. 340,000 tested, under 10 active. HeLa miR-21 FLuc reporter, luciferase, 48 h. Potency, µM (top dose mostly 38.3 µM), without a hit: at the top dose reporter change, positive = more light. AID 2288; active = well fitted rising curve with a large enough effect; inconclusive = small, poorly fitted or top-dose-only effect; inactive = no such curve, though single readings can be large or run the other way;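 note: % of control where 0% means no effect; miR-21 action dims this reporter so a rising signal means less miR-21 action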
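HeLa cells stably expressing CMV-driven firefly luciferase with a downstream miR-21 binding sequence, endogenously expressing miR-21, were treated with titrations (up to about 40uM final) for 48 hours at 37 degree Celsius. Luciferase luminescence was read after lysis.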
Rango release inh = prevents RanGTP from dissociating the Rango-importin beta complex; actives 0.071% (n = 340,000); Potency, µM (series often up to 46.1 µM), without a hit: at the top dose activity change, negative = inhibition; Biochemical FRET Rango-importin beta, RanGTP-induced dissociation; active means falling FRET ratio curve, often poorly fitted, with flat reads before Ran was added; inconclusive means other falling curves, or compound fluorescence or quenching; inactive means flat or rising ratio curve;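 note: potency is the fitted concentration of half-maximal effect; % of control where 0% means no effect; nearly all actives have a fitted effect of over 45% in size; -100% = wells without RanGTP and RCC1; the record marks most hits as doubtful in a second field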
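Compounds preincubate 5 min with complex of recombinant Rango and importin beta in PBS with 1 mM DTT. Ran (0.6 uM) loaded with 2 mM GTP plus 0.2 uM RCC1 starts dissociation; FRET is recorded 45 min later.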
Rango-impB inh = inhibitors of Rango-importin beta complex formation | Potency, µM (top dose mostly 92.2 µM), for the others: at the top dose inhibition of complex formation | Q14974 | Rango CFP/YFP FRET sensor + importin beta, 45 min | actives 0.031% (n = 340,000); active = rising FRET ratio curve, often small or poorly fitted; inconclusive = mostly compound fluorescence or quenching in the first reads; inactive = flat curves in all reads;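 note: potency is the fitted concentration of half-maximal effect; 0% = DMSO wells and 100% = buffer wells lacking importin beta; nearly all actives have a fitted effect of over 15% in size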
Target sequence (Q14974 whole entry, looked up): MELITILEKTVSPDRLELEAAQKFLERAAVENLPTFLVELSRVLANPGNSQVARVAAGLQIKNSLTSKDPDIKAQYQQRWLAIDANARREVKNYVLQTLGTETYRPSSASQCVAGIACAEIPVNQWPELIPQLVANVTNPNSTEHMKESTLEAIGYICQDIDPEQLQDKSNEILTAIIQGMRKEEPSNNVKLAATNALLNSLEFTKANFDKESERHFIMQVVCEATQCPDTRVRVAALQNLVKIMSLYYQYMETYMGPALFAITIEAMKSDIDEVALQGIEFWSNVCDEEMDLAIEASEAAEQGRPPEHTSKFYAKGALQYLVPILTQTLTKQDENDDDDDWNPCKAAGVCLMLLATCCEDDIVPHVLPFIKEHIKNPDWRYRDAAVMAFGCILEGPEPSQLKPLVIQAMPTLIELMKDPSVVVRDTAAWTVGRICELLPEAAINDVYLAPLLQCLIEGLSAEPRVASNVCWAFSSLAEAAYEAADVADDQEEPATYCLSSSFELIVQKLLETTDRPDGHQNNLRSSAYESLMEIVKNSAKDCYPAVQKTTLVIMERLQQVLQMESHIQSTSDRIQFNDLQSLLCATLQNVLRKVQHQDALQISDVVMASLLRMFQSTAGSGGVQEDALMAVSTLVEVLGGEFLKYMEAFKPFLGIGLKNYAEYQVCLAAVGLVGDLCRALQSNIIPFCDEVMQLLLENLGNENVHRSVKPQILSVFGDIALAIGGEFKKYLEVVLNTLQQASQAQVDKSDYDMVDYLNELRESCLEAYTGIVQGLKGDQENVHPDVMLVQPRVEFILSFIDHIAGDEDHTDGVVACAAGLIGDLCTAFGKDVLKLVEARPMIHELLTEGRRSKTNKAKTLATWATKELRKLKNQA
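Inhibition scored from the CFP 486 nm/YFP 530 nm FRET ratio 45 min after adding 0.125 microM importin beta to 50 nM Rango biosensor preincubated 5 min with compound (room temperature, PBS with DTT, Tween-20, BSA). No-importin wells as positive control.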
GLA inh pH 4.5 = inhibitors of human alpha-galactosidase A at pH 4.5; P06280; activity change, negative = inhibition, % at 105 µM; 230,000 tested, under 10 active; purified enzyme, 4-MU-alpha-Gal fluorescence, pH 4.5; inconclusive = small, poorly fitted or top-dose-only inhibition, or a rising curve; inactive = flat fitted curve, though single readings scatter; no compound was filed as active;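 note: 0% = full activity with enzyme and -100% = basal without enzyme; dose as in the result columns while the protocol names 77 µM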
Active calls of the source: *; ? = inconclusive; . = not tested or not shown; & = joins results of further samples. Only part of the results is shown. The share of hits here may be higher or lower than overall.

mol	miR-21 reporter	Rango release inh	Rango-impB inh	GLA inh pH 4.5
CC(C)N1C(=O)/C(=C\c2nc3ccccc3c(=O)[nH]2)c2ccccc21	16%	?	?	-7
CC(=O)N(CCCN(C)C)CCC(C)CCC=C(C)C (stereo unspecified)	0%	30%	-1.3%	-1
COc1ccccc1N1CCN(C(=O)c2ccc(CSc3ccccc3)cc2)CC1	3%	-8%	?	-18
CC(=O)N1CCN(C(=O)COc2ccccc2C(=O)Nc2ccccc2)CC1	0%	9%	4.5%	3
Cc1cccc(C)c1N1C(=O)CC(N2CCSCC2)C1=O (stereo unspecified)	4%	1%	2.2%	2
COc1ccc(-n2c(C)cc(C)c(C(C)=O)c2=S)cc1	-7%	14%	-2.7%	-7
COC(=O)[C@H](Cc1ccc(O)cc1)NC(=O)Cn1cnc2c(SC)nc(N)nc21	.	0%	-3.5%	.
CCOC(=O)N1CCN(C(=O)CCCn2nc(C)c3sc4ccccc4c3c2=O)CC1	-1%	-21%	0.8%	-1
O=C(NC12CC3CC(CC(C3)C1)C2)c1ccc([N+](=O)[O-])o1	15%	35%	-0.6%	.
N#C/C(=C/c1ccccc1)C(=O)OCC(=O)Nc1ccccc1[N+](=O)[O-]	.	10%	-4.2%	.
COc1ccc(N(C(=O)COc2ccccc2OC)S(=O)(=O)c2ccc(C)cc2)cc1	-3%	27%	-3.0%	5
CNC[C@H](NC[C@@H](NCCCc1ccccc1)c1ccccc1)[C@H](C)O	-3%	-5%	-0.2%	.
O=C(CC(=O)c1ccccc1)Nc1ccc(Cl)cc1	-46%	17%	-1.7%	.
O=C(CN1C(=O)NC2(CCc3ccccc3C2)C1=O)NCC(F)(F)F (stereo unspecified)	-1%	-11%	-2.0%	.
O=C(O)CNC(=O)c1ccccc1Br	-2%	-3%	-2.7%	4

Brought forward from above: three compounds, then new ones.
mol	miR-21 reporter	Rango release inh	Rango-impB inh	GLA inh pH 4.5
O=C(CC(=O)c1ccccc1)Nc1ccc(Cl)cc1	-46%	17%	-1.7%	.
O=C(CN1C(=O)NC2(CCc3ccccc3C2)C1=O)NCC(F)(F)F (stereo unspecified)	-1%	-11%	-2.0%	.
O=C(O)CNC(=O)c1ccccc1Br	-2%	-3%	-2.7%	4
COCCn1c(-c2ccc(F)cc2)nc2cccnc21	0%	-6%	-0.1%	.
CC1=C(C(=O)Nc2cc(-c3cccc(F)c3)[nH]n2)C2(CCCCC2)OC1=O	11%	-8%	0.5%	2
CN(C)C(CNC(=O)c1cc(S(=O)(=O)N2CCOCC2)ccc1F)c1cccs1 (stereo unspecified)	.	13%	0.6%	.
COc1cccc(CNC(=O)CSc2nnc3c(n2)[nH]c2ccc(OC)cc23)c1	-1%	33%	-1.3%	.
O=C(Cn1c(NCCCO)nc2ccccc21)c1ccco1	0%	-5%	0.0%	-2
CCCNC(=O)N1CCCC(C(N)=O)C1 (stereo unspecified)	-2%	0%	1.8%	-4
Cc1ccc(-n2ncc3c2CC(C)(C)CC3NC(=O)CCc2ccc(=O)[nH]n2)cc1 (stereo unspecified)	-8%	-12%	-0.8%	.
COc1ccc(CNC(=O)CN(c2cccc([N+](=O)[O-])c2)S(C)(=O)=O)cc1	-1%	0%	-0.9%	1
COc1cccc(N2C(N)=NC(N)=NC2(C)C)c1	6%	3%	-0.5%	-5
O=C(NCCc1c[nH]c2ccccc12)c1ccccc1	-47%	-12%	0.6%	.
COC(=O)C1=C(C)NC(=O)C1(NC(=O)CN1CCCC1=O)C(F)(F)F (stereo unspecified)	-14%	1%	3.0%	-8
C[C@H]1CN([C@@H](C)CO)C(=O)c2cccc(NS(=O)(=O)c3ccc(F)cc3)c2O[C@H]1CN(C)S(=O)(=O)c1cn(C)cn1	.	-2%	2.2%	.
Nc1cc(=O)[nH]c(SCC(=O)NNC(=O)c2ccccc2)n1	.	-13%	0.0%	.
CCCCN1CNC(=S)N(c2ccccc2OCC)C1	-1%	0%	4.8%	7
Cc1ccc(NC(=O)c2cc(-c3ccccc3O)n[nH]2)cc1Cl	-17%	-8%	-0.3%	.
CCn1c(COC(=O)CNC(=O)c2cc(OC)c(OC)c(OC)c2)nc2cc(S(=O)(=O)N(C)C)ccc21	.	1%	?	.
COc1ccc(NC(=O)CSc2nc3ccccc3c(=O)n2C)cc1	-1%	-6%	-2.2%	.
CN(C)c1oc(/C=C/c2ccccc2)nc1C#N	-76%	?	?	?
FC(F)(F)c1ccccc1C1C2=C(Nc3ncnn31)c1ccccc1CCC2 (stereo unspecified)	-6%	.	.	-8
C/C=C(\C)C(=O)NCCN1C2=NC[C@H](Cc3ccc(O)cc3)N2C[C@@H]1Cc1ccc(OC)cc1	4%	-3%	-2.7%	3
Cn1cc(/C=C(\C#N)C(=O)Nc2cccc([N+](=O)[O-])c2)c2ccccc21	1%	3%	-5.0%	-6
O=C(NCc1ccco1)c1nn2c(C(F)(F)F)cc(-c3cccs3)nc2c1Cl	0%	-9%	?	3
O=C(CCC1CCCN(Cc2cccc(Cl)c2)C1)NCc1ccccc1F (stereo unspecified)	13%	0%	-3.3%	-2
O=c1[nH]c2ccc(NC(=S)Nc3ccc(Cl)cc3)cc2[nH]1	-5%	10%	-3.8%	3
COc1ccccc1NC(=O)NCCN1CCNC1=O	-1%	-2%	5.7%	10
O=C(/C=C/c1ccc(F)cc1)NC(=S)Nc1ccccc1C(=O)NC1CCCCC1	0%	23%	2.3%	4
CCC(CC)C(=O)Nc1ccc(C)c(O)c1	-7%	20%	?	0
CCNC(=S)N(Cc1cccs1)Cc1cc2cc(OCC)ccc2[nH]c1=O	-6%	2%	6.8%	-29
CN1CCN(S(=O)(=O)c2ccc(N3CCN(C(c4ccccc4)c4ccccc4)CC3)nc2)CC1	-3%	4%	-1.1%	4
COc1ccccc1N1CCN(CC(=O)c2c[nH]c3ccccc23)CC1	1%	5%	-1.2%	0
CC1=C(C#N)C(/C=N/OCc2ccc(Cl)cc2)CC(=O)N1 (stereo unspecified)	-32%	-3%	?	11
COc1ccc(C(C(=O)NCC2CCCO2)N(C(=O)c2snc(C(N)=O)c2N)c2ccccc2C)cc1OC (stereo unspecified)	1%	-10%	1.2%	.
COc1ccc(/C=C2/C(=N)N3C(=NC2=O)Sc2cc(S(C)(=O)=O)ccc23)cc1OC	-10%	?	?	3
COc1ccc(Cl)cc1NS(=O)(=O)c1c(C)[nH]c(=O)[nH]c1=O	5%&-38%	-6%	1.0%	.
NC(=O)c1cc2cc(Br)ccc2oc1=NCc1ccccc1	-3%	-9%	2.7%	-2
O=C(Nc1ccc(F)cc1)c1cccc2ccccc12	-16%	13%	-1.2%	.
CNC(=S)N1N=C(c2cccs2)CC1c1ccc(OC)cc1 (stereo unspecified)	-6%	6%	0.9%	.
O=[N+]([O-])c1ccccc1/C=C/CN1CCCCC1	0%	-3%	7.8%	1
CCCSc1nc2sc3c(c2c(=O)[nH]1)CC(C)CC3 (stereo unspecified)	3%	7%	2.6%	5
COc1cc(C2C(C(=O)c3cccs3)=C(O)C(=O)N2CCN2CCOCC2)ccc1OCCC(C)C (stereo unspecified)	.	36%	-0.1%	.
O=C1Nc2ccc(S(=O)(=O)NCCC3=CCCCC3)c3cccc1c23	-3%	?	?	3
CCNc1nc(NC(C)C)nc(Oc2ccc(OCCOc3ccc(C)cc3)nn2)n1	-12%	13%	0.1%	-3
CCCCC#Cc1ccc2c(c1)COc1c3ccccc3nn1-2	-68%	-6%	-6.1%	-1
O=C(Nc1cccnc1)c1ccc([N+](=O)[O-])cc1Cl	1%	4%	-6.0%	-6
CCOC(=O)C1CCCN(S(=O)(=O)CCNC(=O)c2ccc(F)cc2)C1 (stereo unspecified)	.	6%	2.6%	.
CN(CC(=O)Nc1ccccc1Cl)C(=O)COC(=O)c1ccc(S(=O)(=O)C(F)F)cc1	.	-3%	2.6%	.
CCN(C(=O)CSc1nnc(Cc2ccccc2F)n1N)C1CCS(=O)(=O)C1 (stereo unspecified)	-5%	-8%	-2.2%	6
Cc1c(NC(=O)N(C)C)c(=O)n(-c2ccccc2)n1C	-8%	-5%	4.3%	7
CCNC(=S)N(Cc1cc2cc(C)cc(C)c2[nH]c1=O)C1CCCC1	-10%	-1%	-0.7%	0
CCOc1cc(-c2sc(Nc3ccccc3)n[n+]2C)ccc1OC	7%	-8%	-0.6%	.
O=S(=O)(c1ccc(F)c(F)c1)N1CCN(CCc2ccccc2)CC1	-2%	23%	6.6%	.
CCOc1ccc(CN2CCNC(=O)C2CC(=O)O)cc1 (stereo unspecified)	0%	-13%	2.6%	-2
CN1C(=O)CC(N2CCC(C(N)=O)CC2)C1=O (stereo unspecified)	-6%	-4%	1.4%	5
CCOc1ccccc1N(CC(=O)N1CCCCCC1)S(C)(=O)=O	-4%	-7%	0.1%	0
COc1cccc(NC(=O)C(c2ccccc2)N2CCN(CC(=O)N3CCOCC3)CC2)c1 (stereo unspecified)	.	1%	-5.3%	.
O=C(NCCNC(=O)c1cc(OCC(F)(F)F)ccc1OCC(F)(F)F)Nc1ccccc1	3%	23%	-6.2%	3
COCCCN1C(=O)c2[nH]nc(-c3ccccc3O)c2C1c1cccc(Cl)c1 (stereo unspecified)	14%	-15%	5.2%	5
O=C(NNC(=O)C1C2CCC(C2)C1C(=O)O)c1ccc(Cl)cc1 (stereo unspecified)	-23%	-18%	0.9%	6
CC(CCc1ccccc1)NCC(O)COc1ccccc1 (stereo unspecified)	-14%	13%	-2.3%	1
Cc1ccccc1-c1nc(CS(=O)(=O)CC(=O)NCc2ccccc2)c(C)o1	-4%	3%	-4.6%	-8

(cont.)
mol	miR-21 reporter	Rango release inh	Rango-impB inh	GLA inh pH 4.5
CC(=O)c1ccc(S(=O)(=O)Nc2ccccc2C(=O)NC2CC2)cc1	.	1%	-0.5%	.
CCOc1ccccc1C(=O)Nc1ccc2c(c1)C(=O)NC2=O	-2%	14%	1.2%	.
Cc1nn(CC(O)c2ccccc2)c(C)c1Br (stereo unspecified)	-33%	14%	2.7%	-4
Cc1nn(CC(=O)OCC(=O)c2ccccc2)c(C)c1[N+](=O)[O-]	.	-8%	0.2%	.
Cc1cc(C)c(C)c(S(=O)(=O)N2CCSCC2)c1C	-2%	-13%	1.0%	.
c1ccc(-c2nc(-c3ccco3)cs2)nc1	-53%	-25%	0.7%	-1
CCOc1ccc(NS(=O)(=O)c2ccc(OC)c(C)c2)cc1	-2%	-10%	4.5%	-4
O=C(CSc1nnc(NC(=O)C2CC(=O)N(c3ccc(F)cc3)C2)s1)NCc1ccco1 (stereo unspecified)	-2%	-10%	?	.
CN(C)S(=O)(=O)c1cccc(COC(=O)c2cc([N+](=O)[O-])ccc2N2CCOCC2)c1	.	0%	-3.2%	.
COc1ccc(C2CC(=O)c3ccccc3O2)cc1 (stereo unspecified)	-68%	-19%	-0.9%	5
O=c1[nH]ncc2c3ccccc3n(Cc3ccccc3F)c12	-1%	-2%	-1.9%	0
O=C(O)c1ccc2c(c1)C1C=CCC1C(c1cc3c(cc1Br)OCO3)N2 (stereo unspecified)	-12%	-2%	6.3%	-10
CN(CCCNC(=O)CCCOc1cc(=O)n(C)c2ccccc12)Cc1ccccc1	1%	-4%	6.5%	2

Whole records, looked up by structure. Screens in order: miR-21 reporter | Rango release inh | Rango-impB inh | GLA inh pH 4.5
Entry for Cc1nn(CC(=O)OCC(=O)c2ccccc2)c(C)c1[N+](=O)[O-] → . | -8% | 0.2% | .
Entry for CCOc1ccccc1C(=O)Nc1ccc2c(c1)C(=O)NC2=O → -2% | 14% | 1.2% | .

From PubChem BioAssay
